Bioassay records deposited in PubChem by Fisher Drug Discovery Resource Center.
NPYLR7 agonist: agonists of mosquito NPYLR7 receptor, primary screen, cell-based, Aedes aegypti, calcium fluorescence, mosquito biting behavior; Aedes aegypti neuropeptide Y-like receptor 7 (NPYLR7); HEK293T NPYLR7/Galpha15, GCaMP6s calcium fluorescence; activation, % at 10 µM; 270,000 tested, 0.15% active; AID 1259423, 2018; in the data active means activation above about 40%;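 further: 0% = vehicle and 100% = reference agonist at the receptor; some compounds past the cut are filed as inactive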
NPYLR7 agonist max-min: further read-out of NPYLR7 agonist, marked with its call; activation, %; measured here: Max-Min RFU normalised activation; some inactives read as strong as hits;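 span of the calcium signal over five minutes; 0% = vehicle and 100% = native peptide agonist; compound fluorescence can raise it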
* marks the source's active call; other numbers are inactive results; & = joins results of further samples.

The opening 3 entries as a preview:
SMILES	NPYLR7 agonist	NPYLR7 agonist max-min
COc1cc(OC)cc(N2CCN(C(=O)c3cccc(C)c3)C(C)C2=O)c1 (stereo not given)	25.7	41.3
CCS(=O)(=O)Oc1cc(CN(CCOC)C(=O)Nc2ccccc2OC)ccc1OC	19.0	10.1
COC(=O)c1ccc(N2C(=O)C3CC=CCC3C2=O)cc1 (stereo not given)	1.0	-0.4

The listing (from the top)
SMILES	NPYLR7 agonist	NPYLR7 agonist max-min
COc1cc(OC)cc(N2CCN(C(=O)c3cccc(C)c3)C(C)C2=O)c1 (stereo not given)	25.7	41.3
CCS(=O)(=O)Oc1cc(CN(CCOC)C(=O)Nc2ccccc2OC)ccc1OC	19.0	10.1
COC(=O)c1ccc(N2C(=O)C3CC=CCC3C2=O)cc1 (stereo not given)	1.0	-0.4
Cc1ccccc1Cn1ccnc1CN(C(=O)c1ccc(Cl)cc1)C(C)C	13.6	22.6
Cc1c(NCc2ccccn2)cccc1C(=O)NCc1noc(C(C)C)n1	3.4	17.9
Cc1ccc(CN2CCC2(C)C(=O)Nc2cccc3cccnc23)cc1 (stereo not given)	2.2	1.6
COc1ccc(Cl)cc1CN1C(=O)C(C)ON=C1c1cccnc1 (stereo not given)	8.2	1.3
Cc1nc(C2CC2)nc2sc(C(=O)OCCN3CCOC3=O)c(C)c12	-1.4	41.0
CCOc1ccc(-n2c(C(CC)N(CCCOC)S(=O)(=O)c3ccc(F)cc3)nc3ccccc3c2=O)cc1 (stereo not given)	-5.5	5.2
CCn1nc(C(=O)N(Cc2cccnc2)c2nc3cc(C)c(C)cc3s2)cc1C	-2.1	-2.7
CCN1CCN(C(=O)c2c(-c3ccccc3)c(-c3ccccc3)n[nH]c2=O)CC1	4.4	35.8
Cc1cc(C(=O)NNC(=O)C2CC2C)c(C)n1-c1ccc(F)cc1 (stereo not given)	2.4	0.4
Cc1nc(CNC2CCN(c3ccc(C(=O)N4CCCC(O)C4)cc3)CC2)cs1 (stereo not given)	18.7	9.7
Cc1ccc(NC(=O)N2CCC3(CC2)C(=O)N(CC(=O)NCCc2ccccc2)CN3c2ccccc2)cc1	5.6	6.3
Cn1c(NCC2CCCCC2)nc2cc(-c3ccsc3)sc2c1=O	5.8	1.3
CCc1nc2ccc(C(=O)N(C)Cc3ccco3)cn2c1N(CC)Cc1cccc(Br)c1	15.3	19.3
CCOCCCN(CC(=O)N1CCc2sccc2C1c1ccc(Cl)cc1)C(=O)c1ccc(Cl)c([N+](=O)[O-])c1 (stereo not given)	2.1	16.4
COc1ccc(Cc2nnc(NC(=O)C(C)C)s2)cc1OC	-1.9	-8.2
CCn1nnc2c(SCc3ccccc3F)ncnc21	0.5	27.5
OCCN1CCN(CC(O)Cn2c3ccccc3c3ccccc32)CC1 (stereo not given)	19.6	8.2
COc1ccc(/C=C2\C=C(c3ccccc3)N(c3ccc(Cl)c(Cl)c3)C2=O)cc1	6.2	14.2
CCCN(CC(F)(F)F)C(=O)c1ccc(=O)n(-c2ccccc2)n1	3.8	4.5
CCCCCOc1ccc(N2C(=O)CSC2c2ccc(OC)cc2)cc1 (stereo not given)	-5.3	-12.8
O=C(OCCn1cccn1)c1cc2c(cc1O)CCCC2	-0.5	-1.5
CN1CC(=O)N(Cc2ccc(Cn3nc(NC(=O)c4cnc5ccccc5n4)c4ccccc43)cc2)c2ccccc2C1=O	20.6	22.7
C=CCN1C(=O)/C(=C2\SC(=S)N(CCOC)C2=O)c2ccccc21	0.7	-2.4
COc1ccccc1C1CCN(Cc2ccc(C(=O)N3C4CCC3CC(Oc3ccccc3C(C)C)C4)cc2)CC1 (stereo not given)	5.8	-3.2
CCN(CC(=O)NC(C)(C)C)c1cc(Cl)nc(N)n1	3.6	1.7
CC(=O)c1ccc(OCC(=O)N2CCN(c3ccc(F)cc3)CC2)cc1	-10.7	-11.4
O=C(NOC1CCCCO1)c1ccn(-c2ccccc2F)n1 (stereo not given)	-0.5	0.0
COc1cccc(-c2ccccc2NC(=O)C2CCN(CC3CCCCC3)CC2)c1	10.9&0.0	3.3&-3.8
C#CCOCC(O)CN(Cc1ccc(OC)cc1)Cc1ccco1 (stereo not given)	-2.5	5.3
CN(C)c1ccc(C2NCC(CSc3ncc(C(F)(F)F)cc3Cl)O2)cc1 (stereo not given)	1.8	-4.3
Cc1nn(CCCC(=O)NC2CC2)c(=O)c2cc3sccc3n12	8.3	8.7
N=c1oc2cc(O)ccc2cc1C(=O)Nc1ccc(F)cc1	-4.4	-6.2
COc1ccc(OCCCCOc2ccccc2)cc1	-5.4	1.4
O=C1CCC2(CCN1)CCN(C(=O)c1c[nH]c3cc(Cl)ccc3c1=O)CC2	1.8	2.1
COc1ccccc1NCN1C(=O)c2ccccc2C1=O	0.8	-8.4
COc1ccc(CCN(Cc2ccc(C)s2)C(=O)CN(C(=O)Nc2c(C(C)C)cccc2C(C)C)C2CCCCC2)cc1OC	-2.0	-5.1
CC(C)CCc1nc(N2CCN(C(=O)C3CCCC3)CC2)c2cnn(-c3cccc(Cl)c3)c2n1	4.8	5.6
C=CCn1cc(CNC(CC)c2nc(C)no2)c(C)n1 (stereo not given)	5.2	1.7
CCn1cc(-c2n[nH]c(=O)n2-c2c(C)noc2C)c(C)n1	1.3	-1.5
CCOC(=O)c1ccccc1NC(=O)CSc1n[nH]c(=O)c2cc(-c3ccc(F)cc3)nn12	0.9	-0.6
Cc1cc(S(=O)(=O)N2CCC(C(N)=O)CC2)cc([N+](=O)[O-])c1C	3.1	2.4
COc1ccc(C2=NOC(CN(Cc3ccc(F)cc3F)C(=O)NC(C)C)C2)cc1 (stereo not given)	30.1	32.8
CNc1nc2cnc(-c3cccc(F)c3)cc2n1Cc1ccccc1	10.1	5.7
O=C(CC1COCCN1)N1CCN(Cc2ccccn2)CC1 (stereo not given)	-3.4	-3.6
CC1CCCN(C(=O)c2ccc3c(c2)C(=O)N(Cc2ccco2)C3=O)C1 (stereo not given)	2.1	-0.3
CCOC(=O)C1(C)CCCN1C(=O)c1snnc1C (stereo not given)	-1.4	-2.2
CCOC(=O)c1ccc2c(c1)nc(SCc1c(F)c(F)c(F)c(F)c1F)n2Cc1cccc(F)c1	-4.4	-10.6
CCn1nc(C(=O)NNC(=O)C(C)C)c2ccccc2c1=O	2.2	5.4
CC(C)n1c(SCc2ccc(Cl)cc2F)nc2cc(S(=O)(=O)N3CCCC3)ccc21	3.2	0.3
COc1ccc2nc(N(Cc3cccnc3)C(=O)c3cc(C)n(C)n3)sc2c1	5.7	2.1
COc1ccc(-c2cc(C(=O)OCC(=O)C(C)(C)C)c3ccccc3n2)cc1	-0.4	10.1
Cc1cc(N2CCN(c3ccc(O)cc3)CC2)nc(C)n1	-1.0	-2.8
N#C/C(=C\N1CCC(C(N)=O)CC1)C(=O)NCc1ccccc1	5.9	3.8
O=C(NCCN1CCCC1)c1csc(CSc2nnc(-c3ccncc3)n2-c2cccc(C(F)(F)F)c2)n1	12.4	13.4
Cc1nc(CNC(=O)CC(c2ccccc2)c2ccc3c(c2)OCO3)n[nH]1 (stereo not given)	4.8	3.2
Cc1cc(C)n(C2CCN(C3CCC4(CCNCC4)CC3)C2)n1 (stereo not given)	0.2	-0.6
Cc1ccccc1CNC(=O)COc1ccc(CC(=O)O)cc1	5.1	3.9

Following part:
SMILES	NPYLR7 agonist	NPYLR7 agonist max-min
CCN(CC)C(=O)C(C)Nc1cc(OC)c(OC)c(OC)c1 (stereo not given)	5.7	2.0
CCCc1cc(N2CCN(CC#N)CC2)n2nc3nc(C)cc(C)c3c2n1	5.0	5.2
CCCn1cc(C(=O)NC2CCCCCC2)c2nn(-c3ccccc3)c(=O)c-2c1	6.7	6.2
Cc1ccc(C2=[N+]([O-])C(C)N(O)C2(C)C)cc1 (stereo not given)	-5.3	-7.5
CC1CC(C)CN(C(C(N)=O)c2ccc(F)cc2)C1 (stereo not given)	-5.4	-8.6
CCOP(=O)(CN1CCN(CP(=O)(OCC)OCC)CC1)OCC	-7.1	-10.6
COc1cc(CNc2nccnc2-c2cccc(F)c2)cc(OC)c1OC	-4.3	-8.3
COc1ccc(N2C(=O)C(N)C(=N)C2(C)C)cc1 (stereo not given)	6.1	5.8
C=CC(C)(O)CNCc1nc(-c2ccc(Cl)cc2)no1 (stereo not given)	17.3	38.2
CCC(C(=O)Nc1nccs1)N1C[C@H]2C[C@H](O)[C@H](O)C[C@H]2C1 (stereo not given in full)	21.9	19.4
CC=CC(=O)OCC(=O)c1ccc(NC(C)=O)cc1F	-4.2	-9.0
Cc1ccc(-c2cc(C(=O)NC(C)C(C)C)n(-c3ccccc3)n2)cc1C (stereo not given)	17.1	15.7
CCOc1ccc(OCCCOc2ccc(Cl)c(C)c2)cc1	-7.3	5.7
COCCNc1ncnc2c1c(-c1ccccc1)cn2-c1ccc(C)c(Cl)c1	-0.7	-2.0
CC1CN(c2cc(Oc3ccccc3F)ncn2)CCN1Cc1ccncc1 (stereo not given)	-8.3	-3.2
CCOC(=O)C1(CC2CCCCO2)CCN(C(=O)Nc2ccccc2CC)CC1 (stereo not given)	5.0	4.9
COCCN(CC(=O)Nc1nc(CC(=O)NCc2ccncc2)cs1)C(=O)c1ccco1	-1.5	8.1
CC1NC(=S)N(CCc2nc(C(C)(C)C)cs2)C1=O (stereo not given)	-2.6	-5.2
Cc1ccnc(NCCn2cnc(-c3ccccc3)c2-c2ncc[nH]2)c1	-5.4	-6.5
COc1cc(C(C)=O)ccc1OCc1cc(C(=O)NCC(F)(F)F)no1	15.0	12.6

A second format for part of the listing above:
Compound | NPYLR7 agonist | NPYLR7 agonist max-min
N#C/C(=C\N1CCC(C(N)=O)CC1)C(=O)NCc1ccccc1 | 5.9 | 3.8
O=C(NCCN1CCCC1)c1csc(CSc2nnc(-c3ccncc3)n2-c2cccc(C(F)(F)F)c2)n1 | 12.4 | 13.4
Cc1nc(CNC(=O)CC(c2ccccc2)c2ccc3c(c2)OCO3)n[nH]1 (stereo not given) | 4.8 | 3.2
Cc1cc(C)n(C2CCN(C3CCC4(CCNCC4)CC3)C2)n1 (stereo not given) | 0.2 | -0.6
Cc1ccccc1CNC(=O)COc1ccc(CC(=O)O)cc1 | 5.1 | 3.9
CCN(CC)C(=O)C(C)Nc1cc(OC)c(OC)c(OC)c1 (stereo not given) | 5.7 | 2.0
CCCc1cc(N2CCN(CC#N)CC2)n2nc3nc(C)cc(C)c3c2n1 | 5.0 | 5.2
CCCn1cc(C(=O)NC2CCCCCC2)c2nn(-c3ccccc3)c(=O)c-2c1 | 6.7 | 6.2
Cc1ccc(C2=[N+]([O-])C(C)N(O)C2(C)C)cc1 (stereo not given) | -5.3 | -7.5
CC1CC(C)CN(C(C(N)=O)c2ccc(F)cc2)C1 (stereo not given) | -5.4 | -8.6
CCOP(=O)(CN1CCN(CP(=O)(OCC)OCC)CC1)OCC | -7.1 | -10.6
COc1cc(CNc2nccnc2-c2cccc(F)c2)cc(OC)c1OC | -4.3 | -8.3
COc1ccc(N2C(=O)C(N)C(=N)C2(C)C)cc1 (stereo not given) | 6.1 | 5.8
C=CC(C)(O)CNCc1nc(-c2ccc(Cl)cc2)no1 (stereo not given) | 17.3 | 38.2
CCC(C(=O)Nc1nccs1)N1C[C@H]2C[C@H](O)[C@H](O)C[C@H]2C1 (stereo not given in full) | 21.9 | 19.4
CC=CC(=O)OCC(=O)c1ccc(NC(C)=O)cc1F | -4.2 | -9.0
Cc1ccc(-c2cc(C(=O)NC(C)C(C)C)n(-c3ccccc3)n2)cc1C (stereo not given) | 17.1 | 15.7
CCOc1ccc(OCCCOc2ccc(Cl)c(C)c2)cc1 | -7.3 | 5.7
COCCNc1ncnc2c1c(-c1ccccc1)cn2-c1ccc(C)c(Cl)c1 | -0.7 | -2.0
CC1CN(c2cc(Oc3ccccc3F)ncn2)CCN1Cc1ccncc1 (stereo not given) | -8.3 | -3.2
CCOC(=O)C1(CC2CCCCO2)CCN(C(=O)Nc2ccccc2CC)CC1 (stereo not given) | 5.0 | 4.9
COCCN(CC(=O)Nc1nc(CC(=O)NCc2ccncc2)cs1)C(=O)c1ccco1 | -1.5 | 8.1
CC1NC(=S)N(CCc2nc(C(C)(C)C)cs2)C1=O (stereo not given) | -2.6 | -5.2
Cc1ccnc(NCCn2cnc(-c3ccccc3)c2-c2ncc[nH]2)c1 | -5.4 | -6.5
COc1cc(C(C)=O)ccc1OCc1cc(C(=O)NCC(F)(F)F)no1 | 15.0 | 12.6

Other records follow.
SMILES	NPYLR7 agonist	NPYLR7 agonist max-min
O=c1c(S(=O)(=O)c2ccccc2)c[nH]c2cc3c(cc12)OCCO3	5.0	5.5
O=C(NCc1ccncc1)c1csc(COc2ccc(F)cc2)n1	3.9	5.1
CCC(C)NC(=O)c1coc(CN(Cc2ccc3c(c2)OCO3)Cc2cccc(Cl)c2Cl)n1 (stereo not given)	21.9	20.6
COCCNC(=O)Cn1nc2c(c1NC(=O)COc1ccc3ccccc3c1)CSC2	-7.5	-5.4
COc1ccc(-c2nnc(SCc3ccc(Cl)cc3Cl)n2-c2ccc(C)cc2)cc1	3.7	9.4
CCN(Cc1ccc(CO)o1)Cc1ccccc1F	13.3	8.3
CC(=C(C#N)C#N)c1ccc2c(c1)OCCO2	1.9	-6.9
COCCn1c(C)cc(O)c(C(c2ccc(F)cc2)N2CCN(CCO)CC2)c1=O (stereo not given)	9.6	3.2
CCc1[nH]c(C(=O)OCC(=O)c2cccc(Br)c2)c(C)c1C(=O)OC	-6.9	-7.8
CCOC(=O)c1c(C)c(C(=O)CN(C(=O)c2ccc(Cl)c(Cl)c2)C2CC2)c(C)n1C	-4.9	0.3
COc1ccc(N2CCN(Cc3cnc[nH]3)C(C)C2)cc1 (stereo not given)	4.9	1.9
CC1c2ccsc2CCN1C(=O)Nc1nnc(C(C)(C)C)s1 (stereo not given)	7.0	7.2
Nc1nnc(-c2cc(-c3ccc(O)cc3)on2)o1	6.2	1.4
CCOC(=O)N1CCN(C(=O)CSc2ccc(-c3ccncc3)nn2)CC1	-11.5	-15.4
COc1ccccc1-c1csc(NC(C)c2ccccc2)n1 (stereo not given)	5.0	3.5
CCOC(=O)C1CCN(C(=O)c2ccc(CSc3nc(CC)cc(N(C)C4CCCCC4)n3)cc2)CC1	-1.4	0.3

An excerpt; rates above refer to the full screens.
